NPYLR7 ag = activates Aedes aegypti NPYLR7 receptor; HEK293T NPYLR7/Galpha15, GCaMP6s calcium fluorescence; activation, % at 10 µM; 0.15% of 270,000 active; AID 1259423; in the data active = activation above about 40%;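 also: 0% = vehicle and 100% = reference agonist at the receptor; some compounds past the cut are filed as inactive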
NPYLR7 ag max-min = recorded beside NPYLR7 ag, whose call it bears; activation, %; measured here: Max-Min RFU normalised activation; some inactives read as strong as hits;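 span of the calcium signal over five minutes; 0% = vehicle and 100% = native peptide agonist; compound fluorescence can raise it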
* marks the source's active call; other numbers are inactive results. Some of the compounds tested; rates above refer to the full screens.

cpd	smiles	NPYLR7 ag	NPYLR7 ag max-min
1	COC(=O)c1ccc(-c2noc(CN3CCCCC3c3cccc(F)c3)n2)cc1 (centres undefined)	0	-2
2	Cc1cc(OC(=O)c2cc(C(F)(F)F)cc(C(F)(F)F)c2)c([N+](=O)[O-])c(=O)[nH]1	-3	-1
3	COCC(C)Nc1nc(C)c(C(C)=O)s1 (centres undefined)	0	1
4	O=C(CN1C(=O)c2ccccc2C1=O)NCCNC(=O)CN1C(=O)c2ccccc2C1=O	-16	-17
5	CN(C)c1ccc(NC(=O)N2C[C@H](Oc3ccccn3)[C@H]3C[C@@H]2Cc2c3[nH]c3ccccc23)cc1	18	16
6	N#Cc1cccc(NC(=O)N2CCCCC2Cc2ccccc2)c1 (centres undefined)	4	3
7	CN1C(=O)C2(CCCN(CCCc3cccnc3)C2)c2ccccc21 (centres undefined)	3	1
8	Cc1cccc(C2=NN(C(=O)CN3CCCC3)C(c3ccccc3Cl)C2)c1 (centres undefined)	0	1
9	O=C(NCC1CCC1)c1cn(-c2ccccc2Cl)nn1	-2	20
10	CCCn1c2c(c(=O)n(C)c1=O)C(=O)C(=Cc1coc3ccc(F)cc3c1=O)N2	-3	-6
11	COCCN(CC(=O)N(Cc1ccc(F)cc1)Cc1ccc(C)o1)C(=O)Nc1ccccc1C(F)(F)F	-8	-7
12	COCCn1cncc1Cn1cnc(-c2ccccc2)c1-c1ccsc1	-9	-16
13	CCCN(Cc1c(CC)nn(-c2ccc(F)cc2)c1N1CCN(C(C)C)CC1)C(=O)COc1ccccc1	5	17
14	c1ccc(C2NC3c4ccccc4OCC3C2c2ccccc2)cc1 (centres undefined)	11	7
15	COc1ccc2nc(-n3nc(C)cc3NC(=O)Cc3cccs3)sc2c1	-6	-13
16	COc1ccc(C(C)C)cc1-c1cnn2c(NCCc3cccnc3)ccnc12	-4	-9
17	Cc1cccc(-n2cc(CNC(=O)C3CC(=O)N(CC(C)C)C3)cn2)c1 (centres undefined)	-3	-6
18	Cc1cc(=O)[nH]c(-n2nc(C)cc2NC(=O)c2cc(C(F)(F)F)cc(C(F)(F)F)c2)n1	7	3
19	Cc1ccc(CN(C(=O)CCCN2CCCC2=O)C2CCCC2)s1	-3	-12
20	CCOC(=O)C1(CCCc2ccccc2)CCN(C(=O)c2ccc[n+]([O-])c2)CC1	3	-3
21	O=C(Nc1ccc(-c2ccco2)cc1)C1CCCN(C(=O)c2ccccc2-n2cccn2)C1 (centres undefined)	21	5
22	Cc1ccc(S(=O)(=O)NC(=O)c2cnc(C)s2)cc1	-8	-9
23	CC(=O)Oc1ccc(C)cc1-n1nc2ccccc2n1	-1	-4
24	CCOC(=O)CC(=O)N1CCC(=O)N(C)C[C@H]2COc3ccccc3[C@H]21	-2	8
25	COc1cccc(C(=O)Oc2cccc(/C=C3/C(=N)N4C=CSC4=NC3=O)c2)c1	-1	-2
26	COc1ccc2[nH]c3c(c2c1)CCN(C(=O)c1ccc(OC)c(C(F)(F)F)c1)C3COCc1ccccc1 (centres undefined)	7	-5
27	CC/C=C/C(=O)N1CCN(C(C#N)C(C)C)CC1 (centres undefined)	5	1
28	CCN(Cc1ccccc1)C(=O)CSC1=NS(=O)(=O)c2ccc(C)cc2N1	-4	-14
29	CCCCCCCCn1c(SCC(C)=O)nc2c1c(=O)[nH]c(=O)n2C	-6	12
30	CS(=O)(=O)Oc1ccc(CN(Cc2ccco2)C(=O)c2ccccc2F)cc1	0	6
31	CCc1ccc(N2C(=O)c3sc4nnc(C)c(=O)n4c3C2=O)cc1	10	9
32	CC(=O)N1CCN(C(=O)c2ccc(Nc3c(Oc4ccc5c(c4)CCC5)cnn(-c4ccc(Cl)c(Cl)c4)c3=O)cc2)CC1	12	18
33	CC[N+]1(CC(O)COC2CC(C)CC(C)(C)C2)CCOCC1 (centres undefined)	-1	-4
34	Cc1ccc(NC(=O)NC2CCN(c3ccccc3C(=O)NC(C)c3ccccc3)CC2)cc1 (centres undefined)	7	3
35	CC1(C(=O)NC2CCN(Cc3ccccc3)CC2)CCN1Cc1ccccc1Cl (centres undefined)	4	-3
36	Cc1nn(-c2ccc(N3CCN(C(=O)C4CCCCC4)CC3)nn2)c(C)c1C	-7	-12
37	N#Cc1ccc(Cl)cc1NS(=O)(=O)c1cccc(C(=O)O)c1	1	-4
38	CC(C)CCn1c(=N)c(C#N)cc2c(=O)n3ccccc3nc21	9	14
39	Cc1ccc(F)c(NC(=O)CN(C)CCC(O)c2ccccc2)c1 (centres undefined)	0	1
40	COC(=O)CSc1nc(-c2ccc(Br)cc2)cc(-c2cccs2)c1C#N	8	5
41	COc1ccccc1CN1CCCC(CN(CCN(C)C)C(=O)c2ccccn2)C1 (centres undefined)	-1	-6
42	CCCS(=O)(=O)N1CCC(=NOCC(=O)Nc2cccc(Cl)c2)CC1	13	6
43	N#Cc1c(-c2ccccc2)cc(-c2ccccc2)nc1N	5	-1
44	O=C(NC(C(=O)NC1CC1)C1CCN(C(=O)c2ccc(Cl)cc2)CC1)c1cccs1 (centres undefined)	-7	-6
45	COc1ccc(C(=O)N2C(C(=O)NCc3cccnc3)COC23CCN(C(=O)Cc2ccccc2)CC3)cc1 (centres undefined)	11	15
46	CCn1c(=S)[nH]c2c(c1=O)C1(CCCC1)Cc1ccccc1-2	-3	-5
47	O=C(c1cccs1)N1N=C(c2ccc(Cl)cc2)CC1c1ccc2nccnc2c1 (centres undefined)	3	13
48	CCn1c(=O)n(CC(=O)Nc2ccc3c(c2)CCC3)c2ccccc21	0	-1
49	Cc1ccsc1CN(C)C(=O)CSC(C)C	-4	-7
50	CN1CCCC(CN2CCN(Cc3cc4n(n3)CCCNC4)CC2)C1 (centres undefined)	6	-1
51	O=C(O)C1CCCN1S(=O)(=O)c1cccs1 (centres undefined)	3	-2
52	COCCN(Cc1cccc2cccnc12)CC1CCCN(C2Cc3ccccc3C2)C1 (centres undefined)	6	6
53	CC(C)CC(=O)N1CCN(C(=O)c2cn(C(C)C)cc3c(=O)n(-c4ccccc4)nc2-3)CC1	3	3
54	Cc1cc(C)c(NC(=O)CC(NCCCOC(C)C)C(=O)O)c(C)c1 (centres undefined)	5	2
55	Cn1c(=O)c2c(nc3n2CC(c2ccccc2)=NN3CC=Cc2ccccc2)n(C)c1=O	6	11
56	COc1cccc(-n2cc(CN(C)C(=O)Nc3nc(C)ns3)cn2)c1	-1	-1
57	COc1cccc(OCc2cc(C(=O)NC[C@H]3CCCN3)n[nH]2)c1	3	2
58	C=CCN(Cc1ccccc1C)C(=O)Cc1ccc(O)c(Cl)c1	6	3
59	CC1=NNc2nc3c(c(=O)n(C)c(=O)n3C)n2C1C (centres undefined)	17	9
60	Cc1c(C)n2c3c(=O)n(Cc4ccc(Br)cc4)c(=O)n(C)c3nc2n1Cc1ccco1	7	11

A different layout for part of the listing above:
Each structure is followed by: NPYLR7 ag	NPYLR7 ag max-min
41) COc1ccccc1CN1CCCC(CN(CCN(C)C)C(=O)c2ccccn2)C1 (centres undefined)
  -1	-6
42) CCCS(=O)(=O)N1CCC(=NOCC(=O)Nc2cccc(Cl)c2)CC1
  13	6
43) N#Cc1c(-c2ccccc2)cc(-c2ccccc2)nc1N
  5	-1
44) O=C(NC(C(=O)NC1CC1)C1CCN(C(=O)c2ccc(Cl)cc2)CC1)c1cccs1 (centres undefined)
  -7	-6
45) COc1ccc(C(=O)N2C(C(=O)NCc3cccnc3)COC23CCN(C(=O)Cc2ccccc2)CC3)cc1 (centres undefined)
  11	15
46) CCn1c(=S)[nH]c2c(c1=O)C1(CCCC1)Cc1ccccc1-2
  -3	-5
47) O=C(c1cccs1)N1N=C(c2ccc(Cl)cc2)CC1c1ccc2nccnc2c1 (centres undefined)
  3	13
48) CCn1c(=O)n(CC(=O)Nc2ccc3c(c2)CCC3)c2ccccc21
  0	-1
49) Cc1ccsc1CN(C)C(=O)CSC(C)C
  -4	-7
50) CN1CCCC(CN2CCN(Cc3cc4n(n3)CCCNC4)CC2)C1 (centres undefined)
  6	-1
51) O=C(O)C1CCCN1S(=O)(=O)c1cccs1 (centres undefined)
  3	-2
52) COCCN(Cc1cccc2cccnc12)CC1CCCN(C2Cc3ccccc3C2)C1 (centres undefined)
  6	6
53) CC(C)CC(=O)N1CCN(C(=O)c2cn(C(C)C)cc3c(=O)n(-c4ccccc4)nc2-3)CC1
  3	3
54) Cc1cc(C)c(NC(=O)CC(NCCCOC(C)C)C(=O)O)c(C)c1 (centres undefined)
  5	2
55) Cn1c(=O)c2c(nc3n2CC(c2ccccc2)=NN3CC=Cc2ccccc2)n(C)c1=O
  6	11
56) COc1cccc(-n2cc(CN(C)C(=O)Nc3nc(C)ns3)cn2)c1
  -1	-1
57) COc1cccc(OCc2cc(C(=O)NC[C@H]3CCCN3)n[nH]2)c1
  3	2
58) C=CCN(Cc1ccccc1C)C(=O)Cc1ccc(O)c(Cl)c1
  6	3

Single records (already shown). Values in the order: NPYLR7 ag	NPYLR7 ag max-min
O=C(NCC1CCC1)c1cn(-c2ccccc2Cl)nn1 as listed: -2	20
Cc1ccsc1CN(C)C(=O)CSC(C)C as listed: -4	-7

Next structures.
cpd	smiles	NPYLR7 ag	NPYLR7 ag max-min
61	CCOC(=O)N1CCC(N2Cc3cc(C)ccc3OC(c3ccsc3)C2)CC1 (centres undefined)	15	3
62	CSCCC(=O)N1CCN(c2nc3nccc(-c4ccc(C5CCCCC5)cc4)n3n2)CC1	29	22
63	O=C(Nc1ccc(N2CCCN(C(=O)C3CC3)CC2)cc1)c1cncc(Br)c1	5	2
64	CC1(Cc2ccccc2OC(F)(F)F)C(=O)Nc2cc(Cl)ccc21 (centres undefined)	0	-3
65	CCC(n1nc(C)cc1C)n1nc(C)cc1C	-5	-4
66	COc1ccc(C(CC(=O)N2CCN(c3ccc([N+](=O)[O-])cc3)CC2)c2c[nH]c3ccccc23)cc1OC (centres undefined)	-4	1
67	Cc1ccc(-n2[nH]c(-c3ccccc3F)c(-c3ccc(NC(=O)c4ccccc4C)cc3)c2=O)c(C)c1	14	10
68	CCCN(CC(=O)N1CCCC1)CC(F)(F)F	1	-3
69	CN(C)Cc1ccc(NC(=O)C2CC23CCOCC3)cc1 (centres undefined)	2	0
70	COc1ccc(CCn2c(SCCO)nc3c2c(=O)n(C)c(=O)n3C)cc1	-3	-3
71	c1cc2c(-c3ccc(CN4CCOCC4)cn3)cc(NC3CCCC3)nc2[nH]1	4	2
72	CCOc1ccc(-c2cc3c(=O)n(CC(=O)Nc4cc(OC)cc(OC)c4)ncn3n2)cc1	-13	-16
73	C=CCOc1c(Cl)cc(Cl)cc1C=O	-3	-1
74	Cc1ccc(OC2(C(=O)NC(C)c3cccnc3)CCNCC2)cc1 (centres undefined)	23	8
75	O=C1NCCN(CC(c2ccccc2)c2ccccc2)C1CC(=O)N1CCCCO1 (centres undefined)	-1	-5
76	CCCN(C(=O)C(Cl)Cl)C(CC)c1nc2ccccc2c(=O)n1-c1ccc(OC)cc1 (centres undefined)	14	12
77	Cc1cccc(NS(=O)(=O)c2cc(N)ccc2C)c1	1	1
78	CC(c1cccs1)N(C)C(=O)Nc1ccc(N2CCCC2)nc1 (centres undefined)	2	0
79	COc1ccc(N2C(=O)CSC2c2cccc(NC(=O)c3cccs3)c2)cc1 (centres undefined)	3	12
80	O=C(Cc1cc(Cl)ccc1Cl)NCc1nccs1	0	-2
81	NCc1cc(-c2ccc(F)cc2F)on1	-6	-9
82	COc1ccc(-n2c(SCC(=O)N3CCN(C(=O)c4cccc5ccccc45)C(C)C3)nnc2-c2ccco2)cc1 (centres undefined)	-7	0
83	O=C(Nc1ccc(CC(=O)N2CCc3ccccc32)cc1)N1CCCC1	5	6
84	Cc1cc(Oc2ccccc2Cl)nc(SCc2cccc(C#N)c2)n1	21	29
85	CN(C)c1ccc(NC(=O)c2ccccc2Cl)cc1CN(C(=O)c1ccco1)C1CCCCC1	3	2
86	CN1C(C)(C)CC(Nc2nc(-c3ccccn3)nc3c2CCNC3)CC1(C)C	3	1
87	CCCCN(Cc1ccccc1)Cc1nc(Cc2cccc(F)c2)no1	19	6
88	Nc1nc(Nc2ccc(Oc3ccccc3)cc2)ncc1[N+](=O)[O-]	3	0
89	O=C(c1ccc(Cl)cc1)N(Cc1nccn1Cc1ccc(C(F)(F)F)cc1)C1CC1	-1	12
90	CC(=O)Nc1sc2c(c1C(N)=O)CCCCC2	0	-1
91	Cc1ccc(NC(=O)CCc2ncc(-c3ccccc3F)o2)c(C)c1	-1	2
92	COC(=O)c1sc2nc(CN(Cc3ccco3)CC(O)COc3ccc(Cl)cc3)[nH]c(=O)c2c1C (centres undefined)	-2	2
93	CC(C)(CCl)C(=O)N1CCN(C(=O)CCN2CCc3sccc3C2c2cccc(F)c2)CC1 (centres undefined)	18	15
94	O=C(c1c(Cl)cccc1Cl)N1CCC(Cc2ccc(C(F)(F)F)cc2)CC1	24	29
95	O=C(Nc1nc2c(s1)CCCC2)c1ccc([N+](=O)[O-])cc1[N+](=O)[O-]	-2	-5
96	O=C(NCCn1ncc2c(=O)n(Cc3cccc(Cl)c3)cnc21)c1ccc2c(c1)OCO2	-3	-8
97	O=C(c1ccc2ccccc2c1)N1CCSC1c1cccc(F)c1 (centres undefined)	-5	1
98	CC(C)OCCNC(=O)c1cc(N2CCc3ccccc3C2)nc2ccccc12	14	7
99	CCc1cc2c(=O)c(-c3nc(C)cs3)coc2cc1O	0	-5
100	CCCc1cc(=O)n2cccc(O)c2n1	-6	-15
101	CC1CC(=O)Nc2ccccc2N1C(=O)CSc1nnc(N2CCCCC2)n1C1CC1 (centres undefined)	-3	-4
102	O=c1c2[nH]c3ccccc3c2ncn1CCc1ccccc1	1	-5
103	CCNC(=O)N1CCN(Cc2nnnn2-c2ccc(Cl)cc2)CC1	-1	-2
104	COc1ccc(C(=O)Cn2cnc3c(nnn3C)c2=O)cc1	1	11
105	C=CCOC(=O)C1C(C)=Nc2nc(SCCCC)[nH]c(=O)c2C1c1ccccc1 (centres undefined)	2	-1
106	COc1cc(C#N)ccc1Oc1cc(Cl)nc(N)n1	10	7
107	COC(=O)Cn1ncc(N2C3CC(CC(C)(C)C3)C2C)c(Cl)c1=O (centres undefined)	9	9
